Rce1 inhib: inhibitors of yeast Ras-converting enzyme; AID 2563; 290,000 tested, 0.27% active; yeast membranes, quenched prenylated peptide cleavage fluorescence; calls only;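 active = fall in fluorescence gain of 50% or more versus controls, with final raw signal at or below 3038400; inconclusive = same 50% fall but final raw signal above 3038400; inactive = fall in fluorescence gain under 50%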;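 also: plate controls were neutral control wells for no effect and wells lacking membranes for full effect; tested at 10 µM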
Target sequence (Q03530 whole entry, looked up): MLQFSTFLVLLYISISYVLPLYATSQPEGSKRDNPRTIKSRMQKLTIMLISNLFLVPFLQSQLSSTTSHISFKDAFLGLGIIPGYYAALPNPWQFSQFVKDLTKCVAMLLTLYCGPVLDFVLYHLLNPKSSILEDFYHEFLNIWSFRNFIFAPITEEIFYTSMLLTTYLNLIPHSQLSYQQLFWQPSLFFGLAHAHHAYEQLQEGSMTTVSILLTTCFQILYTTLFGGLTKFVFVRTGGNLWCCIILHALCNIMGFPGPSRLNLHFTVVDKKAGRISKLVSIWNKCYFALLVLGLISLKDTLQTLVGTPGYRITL
Env fusion inh: HIV envelope-mediated fusion inhibition. HeLa-JRFL Env/CEM21 cell fusion, luciferase. inhibition, % at 12.3 µM. 360,000 tested, 1.1% active;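 active = mean replicate inhibition score of at least 50 and every replicate individually at or above 50; inconclusive = only one of the two criteria met; inactive = mean below 50 and not all replicates reaching 50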;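 also: 0% = plate neutral controls and 100% = maraviroc near 300 nM; one replicate is shown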
CSC inhib: cancer stem cell inhibition. cancer stem cell-like cells viability, luminescence. inhibition, % at 7.5 µM. 300,000 tested, 1.1% active. AID 2717;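 active = mean at 75% or more and at least half the replicates too; inconclusive = mean and replicates disagree; tested in HMLE shEcad cells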;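 also: 0% = median of negative and 100% = median of positive control wells; the first replicate is given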
PABP FP inh: PABP-poly(A) binding inhibition. P11940. PABP-poly(A) RNA binding, fluorescence polarization. inhibition, % at 35 µM. 290,000 tested, 1% active. AID 2014;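 active = 50% or more with normal probe brightness, or confirmed in later tests; inconclusive = above 50% with abnormal brightness, or retests that disagree; inactive = below 50% or failed in later tests; about a fifth of its hits are not listed in these tables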;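 also: calls also rest on retests at 20 µM and on dose response follow-up; controls were probe without protein and protein plus probe with vehicle; some compounds called inactive have numbers as strong as hits; many hits fall short of the cut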
Target sequence (P11940 whole entry, looked up): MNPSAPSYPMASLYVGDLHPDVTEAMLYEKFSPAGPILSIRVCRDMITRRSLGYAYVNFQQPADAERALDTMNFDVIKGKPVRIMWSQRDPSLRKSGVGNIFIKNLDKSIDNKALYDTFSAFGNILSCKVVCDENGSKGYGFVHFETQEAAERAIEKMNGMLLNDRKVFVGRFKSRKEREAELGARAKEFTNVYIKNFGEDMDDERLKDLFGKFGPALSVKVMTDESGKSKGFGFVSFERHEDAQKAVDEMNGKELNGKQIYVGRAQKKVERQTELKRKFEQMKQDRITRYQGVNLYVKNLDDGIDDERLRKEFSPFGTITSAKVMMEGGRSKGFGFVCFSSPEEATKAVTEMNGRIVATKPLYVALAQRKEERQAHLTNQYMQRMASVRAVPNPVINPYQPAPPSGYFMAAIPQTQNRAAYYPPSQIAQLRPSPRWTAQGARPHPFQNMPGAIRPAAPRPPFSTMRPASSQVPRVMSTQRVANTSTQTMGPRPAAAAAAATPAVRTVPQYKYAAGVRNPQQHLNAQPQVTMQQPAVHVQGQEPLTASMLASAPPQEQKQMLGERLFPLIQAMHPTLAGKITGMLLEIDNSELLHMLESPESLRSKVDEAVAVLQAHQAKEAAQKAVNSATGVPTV
Yeast UUG start: alters start codon recognition fidelity in yeast. activity score, % at 18.7 µM. S. cerevisiae UUG-firefly luciferase reporter, luminescence/redox ratio. AID 602363. 350,000 tested, 0.13% active;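 active = replicate mean at a twofold rise or more, about +100% in these data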;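 also: firefly luciferase made from a UUG start codon reports start codon fidelity; reporter light over untreated wells divided by growth signal over untreated wells; some hits fall short of that in this replicate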
MT1-MMP act inh: MT1-MMP (human) activation inhibition; P50281; HT1080 RFP-PRO-GFP cells, GFP/RFP ratio fluorescence, overnight; percent of plate control window, DMSO zero; GFP/RFP ratio change, % at 20 µM; 360,000 tested, 0.061% active; AID 651647;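 active = GFP/RFP ratio change of at least 30% with cell ATP level not reduced by more than half and red fluorescence within 50% of control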; also: strong numbers were not always called active
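Assay system: HT1080 RFP-PRO-GFP cells | Dosing: 20 µM single dose, 1% DMSO | Incubation: Cells overnight before dosing, compound overnight, 37 °C, 5% CO2 | Evaluation: GFP/RFP fluorescence ratio | Control set: DMSO-only wells and HT1080 RFP-L50D-GFP cell wells as references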
eIF4H inh: inhibitors of RNA binding by human eIF4H; eIF4H fluorescence polarization binding assay; Q15056; 290,000 tested, 0.94% active; inhibition, % at 35 µM;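 active = 50% or more with normal probe brightness, or confirmed in later tests; inconclusive = above 50% with abnormal brightness, or retests that disagree; inactive = below 50% or failed in later tests; about a fifth of its hits are not listed in these tables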;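 also: calls also rest on retests at 20 µM and on dose response follow-up; 0% = protein and probe with vehicle and 100% = probe without protein; strong numbers were not always called active; many hits fall short of the cut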
MT1-MMP act inh RFP: recorded beside MT1-MMP act inh, whose call it bears; RFP signal change, %; measured here: RFP expression control read;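 0 = vehicle wells; hits needed this value within 50% of zero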
* = called active by the depositor; & = joins results of further samples.

Preview, 2 compounds:
Screening CC1CC(NC(=O)c2ncn[nH]2)CC(C)(C)C1 (stereo not given) returned Rce1 inhib inactive, CSC inhib 36, PABP FP inh 5, Yeast UUG start -14, MT1-MMP act inh 2, eIF4H inh -11 and MT1-MMP act inh RFP -1.
Screening O=C(C(=S)N1CCOCC1)c1c[nH]c2ccccc12 returned Env fusion inh 15, CSC inhib -10, PABP FP inh -6, MT1-MMP act inh -2, eIF4H inh 0 and MT1-MMP act inh RFP 2.

Main list, previewed entries included:
Screening CC1CC(NC(=O)c2ncn[nH]2)CC(C)(C)C1 (stereo not given) returned Rce1 inhib inactive, CSC inhib 36, PABP FP inh 5, Yeast UUG start -14, MT1-MMP act inh 2, eIF4H inh -11 and MT1-MMP act inh RFP -1.
Screening O=C(C(=S)N1CCOCC1)c1c[nH]c2ccccc12 returned Env fusion inh 15, CSC inhib -10, PABP FP inh -6, MT1-MMP act inh -2, eIF4H inh 0 and MT1-MMP act inh RFP 2.
For CCCOP(=O)(c1ccc(N(C)C)cc1)C(O)c1ccccc1OC (stereo not given) the results were Rce1 inhib inactive, Env fusion inh -20, CSC inhib -4, PABP FP inh -10, Yeast UUG start -1, MT1-MMP act inh 6, eIF4H inh 1 and MT1-MMP act inh RFP 4.
`Cn1c(=O)c2c(nc(N3CCN(c4ccccn4)CC3)n2Cc2ccccc2Cl)n(C)c1=O` gave Env fusion inh inconclusive, CSC inhib -6, PABP FP inh -14, Yeast UUG start 6, MT1-MMP act inh -11, eIF4H inh 2 and MT1-MMP act inh RFP -6.
Screening CCOc1cccc(-c2c(C(=O)N/N=C/c3cccnc3)nnn2-c2nonc2N)c1 returned Rce1 inhib inactive, Env fusion inh -2, CSC inhib 16, PABP FP inh 6, Yeast UUG start -19, MT1-MMP act inh -3, eIF4H inh -10 and MT1-MMP act inh RFP 1.
Screening Cc1cc(NC(=O)COc2ncnc3sc(C)c(C)c23)no1 returned Rce1 inhib inactive, CSC inhib -8, PABP FP inh -3, Yeast UUG start 21, MT1-MMP act inh 4, eIF4H inh -11 and MT1-MMP act inh RFP 4.
For CCOCCCNC(=O)CN1C(=O)CSc2ccccc21 the results were Rce1 inhib inactive, Env fusion inh -7, CSC inhib 2, PABP FP inh -5, Yeast UUG start -14, MT1-MMP act inh 1, eIF4H inh -2 and MT1-MMP act inh RFP 1.
Cc1cccc(N2CCN(Cc3cn(C)nc3-c3ccccc3F)CC2)n1 was read as Rce1 inhib inactive, Env fusion inh 2, CSC inhib 51, PABP FP inh 0, MT1-MMP act inh -6, eIF4H inh 5 and MT1-MMP act inh RFP -12.
`O=C(O)c1cccc(COc2ccc3c(c2)CCC3)c1` gave Rce1 inhib inactive, Env fusion inh 85*, CSC inhib 8, PABP FP inh 36, Yeast UUG start -84, MT1-MMP act inh 0, eIF4H inh 45 and MT1-MMP act inh RFP 5.
Screening O=C(c1ccccc1)N1N=C(c2ccc(F)cc2)CC1(O)C(F)(F)F (stereo not given) returned Rce1 inhib inactive, Env fusion inh -8, CSC inhib 7, PABP FP inh 11, MT1-MMP act inh 4, eIF4H inh -1 and MT1-MMP act inh RFP 3.
For CC(C)N(Cc1nc(-c2ccccc2)no1)C(=O)C1CCCCC1 the results were Rce1 inhib inactive, CSC inhib -7, PABP FP inh 3, Yeast UUG start -15, MT1-MMP act inh 2, eIF4H inh -4 and MT1-MMP act inh RFP 4.
Screening CCCN(CCC)c1nc(C)cc(C(C#N)c2nc3ccccc3o2)n1 (stereo not given) returned Rce1 inhib inactive, CSC inhib -10, PABP FP inh -4 and eIF4H inh 5.
Screening O=C(CN(C(=O)CNS(=O)(=O)c1ccc(F)cc1)c1ccccc1)NCc1ccco1 returned Rce1 inhib inactive, Env fusion inh -1, CSC inhib 10, PABP FP inh -11, Yeast UUG start 12, MT1-MMP act inh 0, eIF4H inh 5 and MT1-MMP act inh RFP 0.
COc1ccccc1N1CCN(/N=C/c2cccc(O)c2)CC1 was read as Rce1 inhib inactive, Env fusion inh -23, CSC inhib 14, PABP FP inh -11, MT1-MMP act inh 1, eIF4H inh -2 and MT1-MMP act inh RFP 6.
For COC(=O)CSc1nnc(COc2ccc([N+](=O)[O-])cc2)n1C the results were Rce1 inhib inactive, Env fusion inh -5, CSC inhib -7, PABP FP inh 14, MT1-MMP act inh 3, eIF4H inh 6 and MT1-MMP act inh RFP 5.
COc1ccc(C2C(C#N)=C(N)Oc3cc(C)n(Cc4ccco4)c(=O)c32)cc1 (stereo not given) was read as Rce1 inhib inactive, Env fusion inh -4, CSC inhib -11, PABP FP inh 45, Yeast UUG start -6, MT1-MMP act inh -18, eIF4H inh 41 and MT1-MMP act inh RFP 3.
Screening Cc1ccc(NC(=O)CSc2ccc3c(c2)OCCO3)nc1 returned Rce1 inhib inactive, Env fusion inh -113, CSC inhib -16, Yeast UUG start -8, MT1-MMP act inh -4 and MT1-MMP act inh RFP 1.
Screening CC(C)(C)SCCNC(=O)CN1C(=O)c2ccccc2S1(=O)=O returned Rce1 inhib inactive, Env fusion inh 2, CSC inhib 0, PABP FP inh -17, Yeast UUG start -13, MT1-MMP act inh 0, eIF4H inh -14 and MT1-MMP act inh RFP 6.
Screening CC(=O)Nc1sc(N/N=C\c2ccc(O)cc2)nc1-c1cccs1 returned Rce1 inhib inactive, Env fusion inh -2, CSC inhib -11, PABP FP inh -16, MT1-MMP act inh -1, eIF4H inh -1 and MT1-MMP act inh RFP 2.
Cc1cc(NS(=O)(=O)c2ccc(NC(=O)COc3cc(C)c(Cl)c(C)c3)cc2)no1 was read as Env fusion inh -6, CSC inhib 1, Yeast UUG start -6, MT1-MMP act inh 13 and MT1-MMP act inh RFP 7.
For CCNC(=S)N/N=C/c1cc(Br)cc(Br)c1OC the results were Rce1 inhib inactive, Env fusion inh 11, PABP FP inh 0, Yeast UUG start -26, MT1-MMP act inh -4, eIF4H inh -9 and MT1-MMP act inh RFP -7.
For COc1ccc(NC(=O)c2cc3c(=O)n(C)c4ccccc4c3n2C)cc1Cl the results were Rce1 inhib inactive, Env fusion inh -8, CSC inhib 30, PABP FP inh -4, MT1-MMP act inh 1, eIF4H inh 0 and MT1-MMP act inh RFP 1.
CC1(C)Cc2c(cnn2-c2cccc(F)c2)C(NC(=O)CSc2ccccn2)C1 (stereo not given) was read as Rce1 inhib inactive, Env fusion inh 10, CSC inhib -13, PABP FP inh -4, Yeast UUG start -8, MT1-MMP act inh -2, eIF4H inh 0 and MT1-MMP act inh RFP 0.
`COCCN(CCOc1cc(C)cc(C)c1)Cc1ccc(Cl)cc1` gave Rce1 inhib inactive, Env fusion inh 15, CSC inhib -1, PABP FP inh -11, Yeast UUG start -13, MT1-MMP act inh -7, eIF4H inh -6 and MT1-MMP act inh RFP -3.
For CO/N=C(/CNC(=O)c1cccc(Cl)c1)c1ccc(Cl)cc1 the results were Rce1 inhib inactive, CSC inhib 7, PABP FP inh -7, MT1-MMP act inh 7, eIF4H inh -10 and MT1-MMP act inh RFP 3.
`CNc1ncnc2c1ncn2[C@H]1CN(Cc2ccc(F)cc2)C[C@@H](CO)O1` gave Env fusion inh 22, Yeast UUG start -13, MT1-MMP act inh 3 and MT1-MMP act inh RFP 5.
`CCC1(CC)C(=O)NC(=O)NC1=Nc1cccc(OC)c1` gave Rce1 inhib inactive, CSC inhib -12, PABP FP inh 9, Yeast UUG start -10, MT1-MMP act inh 2, eIF4H inh 3 and MT1-MMP act inh RFP 6.
`Cc1ccc(OCC(=O)NC2CCS(=O)(=O)C2)c(C)c1` (stereo not given) gave Rce1 inhib inactive, Env fusion inh -2, CSC inhib -2, PABP FP inh 2, Yeast UUG start -9, MT1-MMP act inh 3, eIF4H inh -4 and MT1-MMP act inh RFP 6.
`COc1ccc2cc(C(=O)N3CCN(c4ccccc4OC)CC3)[nH]c2c1` gave Rce1 inhib inactive, Env fusion inh 6, CSC inhib -10, PABP FP inh -7, Yeast UUG start 4, MT1-MMP act inh 1, eIF4H inh -5 and MT1-MMP act inh RFP 4.
OC(CNC1CCCCC1)CON=C1CCSc2c(Cl)cccc21 (stereo not given) was read as Env fusion inh -7, Yeast UUG start 2, MT1-MMP act inh 6 and MT1-MMP act inh RFP 1.
`CCn1ncc(C2=NOC(C(=O)NCC(C)C)C2)c1C` (stereo not given) gave Rce1 inhib inactive, Env fusion inh -61, CSC inhib -16, PABP FP inh 2, MT1-MMP act inh 2, eIF4H inh -5 and MT1-MMP act inh RFP 2.
`COc1ccc(CN(CC(=O)NCc2ccccc2)C(=O)CCC(=O)Nc2nccs2)cc1` gave Rce1 inhib inactive, Env fusion inh 8, CSC inhib -7, PABP FP inh -9, Yeast UUG start -33, MT1-MMP act inh -1, eIF4H inh -4 and MT1-MMP act inh RFP 2.
Screening O=C(OCC1O[C@@H](OC(=O)c2cc(O)c(O)c(O)c2)[C@@H](OC(=O)c2cc(O)c(O)c(O)c2)[C@@H](OC(=O)c2cc(O)c(O)c(O)c2)[C@@H]1OC(=O)c1cc(O)c(O)c(O)c1)c1cc(O)c(O)c(O)c1 (stereo not given in full) returned CSC inhib 4, PABP FP inh 88* and eIF4H inh 92*.
Screening COc1cc(OC)c(C(=O)OCC(=O)NC2CCCCCCC2)cc1OC returned Env fusion inh 11, CSC inhib 1, MT1-MMP act inh 0 and MT1-MMP act inh RFP 5.
`C#CC(C)(C)NC(=O)c1sccc1Oc1ccc(F)cc1[N+](=O)[O-]` gave Rce1 inhib inactive, Env fusion inh 12, CSC inhib -4, PABP FP inh 14, MT1-MMP act inh -2, eIF4H inh 3 and MT1-MMP act inh RFP -2.
Screening C[C@H](CO)N1C[C@H](C)[C@@H](CN(C)C(=O)C2CCOCC2)Oc2ncc(Br)cc2C1=O returned Env fusion inh 9, Yeast UUG start 3&-11&-3, MT1-MMP act inh 2 and MT1-MMP act inh RFP 5.
Screening O=C(CSc1nc2cc(Cl)ccc2s1)N1CCCc2ccccc21 returned CSC inhib 17, PABP FP inh 1, Yeast UUG start -12, MT1-MMP act inh -3, eIF4H inh 11 and MT1-MMP act inh RFP -5.
For CC(C)CC(=O)NCCCN1CCN(CCCNC(=O)CC(C)C)CC1 the results were Rce1 inhib inactive, Env fusion inh -35, CSC inhib -9, PABP FP inh -9, Yeast UUG start -2, MT1-MMP act inh 0, eIF4H inh 3 and MT1-MMP act inh RFP 1.
Screening S=c1[nH]nc(Cc2cccc3ccccc23)o1 returned Rce1 inhib inactive, CSC inhib -11, PABP FP inh -9, MT1-MMP act inh 5, eIF4H inh -8 and MT1-MMP act inh RFP 7.
Screening Cc1ccc(NC(=O)C(=O)NCC2CCCN2S(=O)(=O)c2cccs2)cc1 (stereo not given) returned Rce1 inhib inactive, Env fusion inh -35, CSC inhib -8, Yeast UUG start 3, MT1-MMP act inh 1 and MT1-MMP act inh RFP -1.
Screening Cc1nonc1NC(=O)CSc1nnnn1-c1ccccc1 returned Rce1 inhib inactive, Env fusion inh 11, CSC inhib 3, PABP FP inh -5, Yeast UUG start -7, MT1-MMP act inh 1, eIF4H inh 3 and MT1-MMP act inh RFP 3.
Screening O=C(NCc1ccccc1)C1=C[C@H](c2ccc(Br)cc2)C[C@H](OCCCCO)O1 returned Rce1 inhib inactive, Env fusion inh -7, CSC inhib 3, Yeast UUG start -10, MT1-MMP act inh 0 and MT1-MMP act inh RFP 1.
Screening Cc1cc(CN2C(=O)c3ccccc3C2=O)no1 returned Rce1 inhib inactive, Env fusion inh 21, CSC inhib -5, PABP FP inh -12, Yeast UUG start -9, MT1-MMP act inh 4, eIF4H inh -5 and MT1-MMP act inh RFP 1.
